Bioassay records as filed in PubChem.
KCNQ2 pot = KCNQ2 (rat) channel potentiation; O88943; 310,000 tested, 0.54% active; CHO-K1 KCNQ2, FluxOR thallium flux fluorescence; stronger effect = higher value; AID 2239; B-score at 10 µM;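 active = fluorescence ratio B-score at least 3 SD of library B-scores, with initial fluorescence B-score within 3 SD, cut at about 5.3 in these data; same plate scores as AID 2156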;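 note: B-score of peak minus minimum over baseline fluorescence ratio after K+ and Tl+ stimulus; positive B-score means potentiation of KCNQ2 with more thallium influx and brighter signal; only the inactives scoring about 0 or higher are listed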
Target sequence (O88943 whole entry, looked up): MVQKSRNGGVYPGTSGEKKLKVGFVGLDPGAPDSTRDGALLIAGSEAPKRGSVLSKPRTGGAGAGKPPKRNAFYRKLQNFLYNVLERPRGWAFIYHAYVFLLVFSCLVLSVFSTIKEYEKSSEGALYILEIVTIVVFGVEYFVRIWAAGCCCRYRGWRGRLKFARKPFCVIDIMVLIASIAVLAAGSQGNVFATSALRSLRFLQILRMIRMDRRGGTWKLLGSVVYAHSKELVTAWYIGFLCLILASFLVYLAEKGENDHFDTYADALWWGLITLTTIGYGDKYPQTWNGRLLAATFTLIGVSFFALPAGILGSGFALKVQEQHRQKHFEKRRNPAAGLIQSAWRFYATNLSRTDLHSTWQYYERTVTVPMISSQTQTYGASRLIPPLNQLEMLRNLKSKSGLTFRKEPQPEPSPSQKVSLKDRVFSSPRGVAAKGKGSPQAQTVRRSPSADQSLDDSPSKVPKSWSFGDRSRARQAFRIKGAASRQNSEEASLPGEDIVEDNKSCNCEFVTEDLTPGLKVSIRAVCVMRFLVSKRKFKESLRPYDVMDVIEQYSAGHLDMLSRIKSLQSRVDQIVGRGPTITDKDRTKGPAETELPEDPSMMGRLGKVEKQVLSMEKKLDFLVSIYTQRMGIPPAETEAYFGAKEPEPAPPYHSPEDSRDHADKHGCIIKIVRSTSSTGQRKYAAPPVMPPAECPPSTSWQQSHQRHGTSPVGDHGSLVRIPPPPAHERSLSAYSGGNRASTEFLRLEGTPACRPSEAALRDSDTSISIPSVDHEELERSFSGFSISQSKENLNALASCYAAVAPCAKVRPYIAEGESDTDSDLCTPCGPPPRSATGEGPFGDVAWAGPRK
KCNQ2 pot baseline = also measured in KCNQ2 pot; calls as there; B-score; compound at 10 µM; measured here: initial fluorescence intensity artifact check;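 brightness before thallium and not channel activity; 0 = typical well and far values either way flag optical interference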
An asterisk follows results filed as active. These rows are one share of the data. The share of hits here may be higher or lower than overall.

KCNQ2 pot | KCNQ2 pot baseline | SMILES
0.79 | 0.9 | COc1ccc(CC(=O)N(CCC2=CCCCC2)c2c(N)n(Cc3ccccc3)c(=O)[nH]c2=O)cc1OC
0.63 | -0.01 | S=C(Nc1cccc(Cl)c1)N1CCN(c2ccccn2)CC1
1.1 | 0.01 | CCOCCCNC(=O)CC1Oc2ccc(C)cc2NC1=O (centres undefined)
0.44 | -0.22 | Cc1ccnc(NC(=O)CCCOc2cc(=O)n(C)c3ccccc23)c1
1.3 | -0.45 | CCC(Oc1ccccc1)C(=O)Nc1ccccc1C(=O)N1CCOCC1 (centres undefined)
0.63 | 1.6 | Cc1cc(NC(=O)CCC2COc3ccccc3O2)no1 (centres undefined)
0.34 | -0.87 | CCN(CC)S(=O)(=O)c1ccc(N2CCCC2)c(NS(=O)(=O)c2ccc(OC)cc2)c1
0.42 | 0.55 | COc1ccc(C(=O)N2CCCCCC2)cc1S(=O)(=O)N1CCOCC1

Further structures
KCNQ2 pot | KCNQ2 pot baseline | SMILES
0.65 | -0.48 | Cc1cc(=O)oc(C)c1C(=O)NCC1CCCO1 (centres undefined)
0.66 | -0.01 | CC(C)(C)c1nnc2sc(SCCN3C(=O)c4ccccc4C3=O)nn2c1=O
0.28 | -0.18 | CCOC(=O)c1cccnc1SCC(=O)NC(C)CC (centres undefined)
0.12 | -0.83 | Cc1ccc(C(=O)NNC(=O)OC(C)(C)C)c(Cl)c1
0.43 | 0.3 | COc1cc(NC(=O)CN(C)S(=O)(=O)c2ccc(-c3ccc(=O)[nH]n3)s2)cc(OC)c1
0.04 | -0.01 | COc1cc(OC)cc(C(=O)NCC2CCCN(C(=O)c3oc(C)cc3C)C2)c1 (centres undefined)
1.5 | 0.02 | Cc1ccc(S(=O)(=O)Nc2nonc2C)cc1
1.8 | -1.6 | CC1CCCC(C)N1C(=S)SCC(=O)O (centres undefined)

Remaining list, next part:
KCNQ2 pot | KCNQ2 pot baseline | SMILES
1.8 | -0.28 | CCn1c(C)cc(/C=C2/NC(=O)N(Cc3ccccc3F)C2=O)c1C
2 | 0 | COC(=O)c1c(SCC(=O)NC2CCCCC2)[nH]c2ccccc2c1=O
0.66 | 0 | Nc1nnc(CC(=O)N/N=C/c2ccc([N+](=O)[O-])cc2)s1
0.72 | 0 | Cc1ccccc1OCC(=O)Nc1sc(C(=O)Nc2cccc(C)c2C)c(C)c1C#N
1.7 | -0.67 | Cc1cc(C(=O)OCC(=O)N2CC(=O)Nc3ccccc32)c(C)n1-c1ccc(F)cc1
0.35 | 0.71 | COC(=O)C(O)(CC(=O)Nc1cccc(SC)c1)C(F)(F)F (centres undefined)
1.4 | 1.4 | Cc1sc2nc(CSc3n[nH]c(N)n3)[nH]c(=O)c2c1C
0.5 | -1.2 | O=C1CC(c2ccco2)CC2=C1C1c3ccccc3C(=O)N1c1ccccc1N2 (centres undefined)

New compounds follow:
KCNQ2 pot | KCNQ2 pot baseline | SMILES
1.6 | 0.03 | CCCCN(CC)Cc1ccc(CNC(=O)Nc2ccc(Cl)cc2)o1
0.04 | 1.7 | O=C(CCCCCN1C(=O)c2ccccc2C1=O)Nc1ccccc1
0.21 | 0.54 | N#CCOC(=O)C1c2ccccc2Oc2ccccc21
0.8 | 1.9 | COc1ccc(NC(=O)CCNS(=O)(=O)c2cc(Br)cnc2N)c(OC)c1
0.2 | 1.1 | CC(=C/c1ccccc1)/C=N/NC(=O)c1ccccn1
0.14 | 0.04 | O=C(COc1ccc(Br)cc1Cl)Nn1cnnc1
0.44 | -0.73 | CCN(CC)C(=O)Cn1cc(S(=O)(=O)CC(=O)N2CCOCC2)c2ccccc21
0.55 | 2.4 | O=C(NCCCN1CCOCC1)[C@@H]1CSC2c3ccccc3C(=O)N21 (some centres undefined)

Further structures follow:
KCNQ2 pot | KCNQ2 pot baseline | SMILES
2 | -2.3 | CC1CN(C(=S)Nc2ccc(Br)cc2)CC(C)O1 (centres undefined)
0.35 | -1.6 | O=C1CC(c2ccccc2)Cc2nc(NCc3ccco3)ncc21 (centres undefined)
1 | -0.04 | CCCCCCCCCCCCC(=O)CCCCC(=O)O
0.29 | 0.81 | O=C1N(Cc2cccc(Cl)c2)C[C@@H]2C[C@@H](c3ccccn3)N3CCC[C@@]123
1.1 | -1.3 | COCCCNC(=S)N/N=C/c1ccc(OC)c(Br)c1
0.63 | -0.02 | COc1ccc(Cc2nc(N)nc(N)n2)cc1
0.58 | -0.56 | Cc1csc2ncc(C(=O)N3c4ccccc4CC3C)c(=O)n12 (centres undefined)
0.14 | 1 | NC(=S)Nc1nccc(-c2cccs2)n1

The listing continues:
KCNQ2 pot | KCNQ2 pot baseline | SMILES
0.64 | -0.82 | Cc1ccc(/C=N/n2c(C)n[nH]c2=S)o1
0.33 | -0.47 | Cc1ccc(/C=N/NC(=O)Nc2ccccc2)o1
0.04 | -0.24 | O=[N+]([O-])c1ccc2c(c1)C(O)n1ncnc1S2 (centres undefined)
1.3 | -0.54 | COc1cccc(NC(=O)NNC(=O)c2ccc3c(c2)NC(=O)C(C)(C)O3)c1
0.01 | -0.56 | COc1cccc(CN2CCN(C(=O)c3cccc(OC)c3)CC2)c1
0.41 | 1.3 | CN1CCN(C(=O)c2cc(Br)cn2C)CC1
1 | -0.06 | C=CCn1c(Oc2ccc(C(=O)OC)cc2)nc2c1c(=O)n(C)c(=O)n2C
0.2 | -1.6 | CCn1ccc(C(=O)Nc2cccc(Cl)c2)n1

Additional results:
KCNQ2 pot | KCNQ2 pot baseline | SMILES
0.24 | 0 | Cc1cc(C)c2c(N)c(C(=O)NCC3CCCCC3)sc2n1
1.3 | -0.87 | O=C1NCCCCC1NS(=O)(=O)c1ccccc1 (centres undefined)
1.1 | -1.9 | O=C(N/N=C\C=C\c1ccco1)c1cncc(Br)c1
0.44 | -0.02 | CC(C)CNC(=O)C1CCN(S(=O)(=O)c2ccc3c(c2)OCCO3)CC1
1.2 | 0.71 | O=C(COC(=O)CCc1ccccc1)NC12CC3CC(CC(C3)C1)C2
1.7 | -1.1 | CCCn1c(N2CCC(Cc3ccccc3)CC2)nc2c1c(=O)[nH]c(=O)n2C
0.64 | -1.7 | CCOc1ccccc1NC(=O)CCc1ccc(C)o1
0.05 | 0.01 | CCN(CC)Cc1csc(C(N)=O)c1

Three of the entries above in order of the KCNQ2 pot value, ascending:
KCNQ2 pot | KCNQ2 pot baseline | SMILES
0.05 | 0.01 | CCN(CC)Cc1csc(C(N)=O)c1
0.44 | -0.02 | CC(C)CNC(=O)C1CCN(S(=O)(=O)c2ccc3c(c2)OCCO3)CC1
1.3 | -0.87 | O=C1NCCCCC1NS(=O)(=O)c1ccccc1 (centres undefined)

New compounds follow
KCNQ2 pot | KCNQ2 pot baseline | SMILES
0.3 | 1.3 | Cc1ccc(Cn2c(SCCN3CCCCC3)nc3c2c(=O)n(C)c(=O)n3C)cc1
0.07 | 1.2 | O=C(COC(=O)C12CC3CC(CC(Br)(C3)C1)C2)N1CCOCC1
0.99 | -0.3 | O=C(COc1ccccc1)N1CCN=C1SCc1ccccc1
0.91 | -1.6 | COc1ccc(CCNS(=O)(=O)c2cccc3cccnc23)cc1OC
0.01 | 1.8 | O=C(CCS(=O)(=O)Cc1ccccc1)N1CCN(c2ccccc2)CC1
0.29 | 0.33 | CC(Sc1ccsc1[N+](=O)[O-])C(=O)N1CCN(c2ccccn2)CC1 (centres undefined)
0.02 | 0.02 | O=C(Nc1ccc(Cl)cc1)C1CC(=O)n2c(nc3ccccc32)N1 (centres undefined)
0.47 | 0.35 | COc1ccc(C2=NN(S(=O)(=O)c3ccccc3)C(c3ccccc3)C2)cc1 (centres undefined)

A portion taken from the entries so far:
KCNQ2 pot | KCNQ2 pot baseline | SMILES
0.07 | 1.2 | O=C(COC(=O)C12CC3CC(CC(Br)(C3)C1)C2)N1CCOCC1
0.99 | -0.3 | O=C(COc1ccccc1)N1CCN=C1SCc1ccccc1
0.91 | -1.6 | COc1ccc(CCNS(=O)(=O)c2cccc3cccnc23)cc1OC
0.01 | 1.8 | O=C(CCS(=O)(=O)Cc1ccccc1)N1CCN(c2ccccc2)CC1
0.29 | 0.33 | CC(Sc1ccsc1[N+](=O)[O-])C(=O)N1CCN(c2ccccn2)CC1 (centres undefined)
0.02 | 0.02 | O=C(Nc1ccc(Cl)cc1)C1CC(=O)n2c(nc3ccccc32)N1 (centres undefined)
0.47 | 0.35 | COc1ccc(C2=NN(S(=O)(=O)c3ccccc3)C(c3ccccc3)C2)cc1 (centres undefined)

Next results follow:
KCNQ2 pot | KCNQ2 pot baseline | SMILES
0.39 | 0.87 | COc1ccc(/C(C)=N/NC(=O)c2ccc3nc[nH]c3c2)cc1
0.35 | 0.32 | O=C(CSc1nnnn1-c1ccccc1)N1CCCc2ccccc21
0.08 | 0.03 | CCCCc1nnc(NC(=O)CSCc2cc(=O)n3cc(C)sc3n2)s1
0.1 | 1.8 | COC(=O)Nc1ccc(S(=O)(=O)N2c3ccccc3CCC2C)cc1 (centres undefined)
0.17 | 0.41 | CC(C)c1nnc(NC(=O)C2c3ccccc3Oc3ccccc32)s1
0.45 | 0.08 | COC(=O)c1c(CSc2cccc(C)c2)noc1C(=O)NCc1ccco1
0.23 | 0.04 | Cc1cc(-c2nnc3n2N=C(c2ccc(-c4ccccc4)cc2)CS3)n[nH]1
0.08 | -0.23 | O=C(COC(=O)C1CCC1)NCc1ccccc1

Continued.
KCNQ2 pot | KCNQ2 pot baseline | SMILES
0.16 | -1.6 | Brc1cccc(-c2nnc3sc(CNC4CCCC4)cn23)c1
0.83 | 2.3 | Cc1sc2nc(C(C)C)nc(SCC(=O)NC3CC3)c2c1C
0.51 | -1.4 | Cc1c(-c2cccs2)[n+](=O)c2c(n1[O-])CCCC2
0.6 | 1.1 | O=C(/C=C/c1ccccc1Cl)N1CCN(c2ncccn2)CC1
1.6 | -0.48 | Cc1ccc(C2CC(c3ccco3)n3nc(N)nc3N2)cc1 (centres undefined)
0.31 | 2.2 | COc1ccc(CNC(=O)c2c(O)c3cccc4c3n(c2=O)CCC4)cc1OC
0.1 | -1.7 | Nc1ncn(C(=O)c2ccco2)n1
2.3 | 0.55 | CC(C)(CO)NCc1cccc(OCc2ccc(Cl)cc2)c1

(cont.)
KCNQ2 pot | KCNQ2 pot baseline | SMILES
1.1 | 0 | Cc1cc(C)cc(OC(=O)CN2C(=O)c3ccccc3C2=O)c1
0.05 | -1.9 | CS(=O)(=O)c1ccc(Cl)c(NC(=O)CCc2ccccc2)c1
1 | 2.5 | COc1ccc(C(C(=O)NCCC(C)C)N(CCN2CCOCC2)C(=O)Cn2nnc3ccccc32)c(OC)c1 (centres undefined)
0.09 | 0.22 | COCCSc1ccccc1C(=O)Nc1nncs1
0.46 | -2.5 | CCOC(=O)c1c(-c2cccs2)csc1NC(=O)CCCC(=O)O
0.04 | -1.9 | CCC(=O)OCC(=O)Nc1ncc(C(F)(F)F)cc1Cl
0.12 | -0.14 | O=C(COC(=O)c1ccc(S(=O)(=O)NCc2ccco2)cc1)c1ccccc1
1.4 | 0.04 | COc1cc(C2c3c(oc4cc(C)c(C)cc4c3=O)C(=O)N2c2cc(C)ccn2)ccc1O (centres undefined)

Next records follow.
KCNQ2 pot | KCNQ2 pot baseline | SMILES
1.5 | 0.24 | N/C(=N\OC(=O)c1cccc(Br)c1)c1ccncc1
6* | -0.16* | CCc1ccc(NC(=O)C(=O)NNC(=O)COc2cccc(OC)c2)cc1
0.4 | 0.39 | COc1ccc(C(=O)c2oc3ccc(OC)cc3c2N)cc1
1.4 | 0 | COCCCN1C2=C(C(=O)CC(C)(C)C2)C(c2ccc(O)c(OC)c2)C2=C1CC(C)(C)CC2=O
2.2 | 0.07 | NS(=O)(=O)c1ccc(N/C=C\C(=O)c2ccc(F)cc2)cc1
0.02 | -1.2 | CCOc1ccccc1NC(=S)N1CCC(c2nc3ccccc3o2)CC1
0.31 | 2.8 | CCN(C(=O)c1ccc(NC(=O)c2ccco2)cc1)c1ccccc1
0.01 | -2.5 | CC(NC(=O)c1ccc(N2CCCC2)c([N+](=O)[O-])c1)c1ccc(S(N)(=O)=O)cc1 (centres undefined)

Next part:
KCNQ2 pot | KCNQ2 pot baseline | SMILES
0.81 | 1.7 | COCc1cc(=O)[nH]c(/N=C(\N)Nc2c(F)cccc2F)n1
0.67 | 0.18 | COc1ccc(CNCC2COc3ccccc3O2)cc1 (centres undefined)
1 | -0.9 | CSc1nsc(SCC(=O)NCc2ccc(C)cc2)n1
0.04 | -1.5 | O=c1nccc(N/N=C/c2ccccc2O)[nH]1
0.35 | -0.68 | C=CCOc1ccc(C2C(C(=O)c3ccco3)=C(O)C(=O)N2CCCN(CC)CC)cc1 (centres undefined)
1.2 | -0.53 | COc1ccccc1N1C(=O)[C@@H]2C(C(=O)CN3C(=O)c4ccccc4C3=O)=NN[C@@H]2C1=O
0.56 | 1.1 | N=C1C(c2nc3ccccc3s2)=C(O)CN1C1CCC(O)CC1 (centres undefined)
2.1 | -2.3 | COC(=O)c1cc(OC)c(OC)c(OC)c1NC(=O)c1ccc(S(=O)(=O)N(C)C)cc1

Additional compounds
KCNQ2 pot | KCNQ2 pot baseline | SMILES
1.7 | -0.69 | COc1ccc(S(=O)(=O)N(CC(=O)NCC2CCCO2)C2CCCCC2)cc1OC (centres undefined)
0.11 | 1.1 | Fc1c(F)c(C(F)(F)F)c(F)c(F)c1N1CCN(c2ccc3nnc(C(F)(F)F)n3n2)CC1
0.82 | 0.79 | COc1ccccc1NC(=O)CSc1nnc(-c2ccccn2)o1
1.3 | 1.5 | CCn1c(SCC(=O)N2CCOCC2)nc2c(c1=O)SC(C)C2 (centres undefined)
1.3 | 0.06 | O=C(CCCc1nc(-c2ccc(Cl)cc2)no1)N1CCOCC1
0.04 | -0.06 | CCOc1ccc(C(OC(=O)c2ccco2)C(=O)NCc2ccc(C)cc2)cc1 (centres undefined)
0.13 | 2.5 | CC1=C(C(=O)N(C)CCC#N)C2(CCCCC2)OC1=O
0.03 | 0.53 | Nc1ncnc2nc(SCCN3CCCCC3)[nH]c12
